# Bioassay records from PubChem BioAssay.
# FGF22 binding = FGF22 (human) thermal shift binding. calls only at 9.99 µM. Q9HCT0. recombinant FGF22 thermal shift, SYPRO orange fluorescence; percent of sucrose octasulfate shift, DMSO zero. AID 651658. hit rate 1.5% among 340,000;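 active means melting point raised past a set limit in the mean and every replicate; inconclusive means no clear call; three in four hits are not shown here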
# Target sequence (Q9HCT0 whole entry, looked up): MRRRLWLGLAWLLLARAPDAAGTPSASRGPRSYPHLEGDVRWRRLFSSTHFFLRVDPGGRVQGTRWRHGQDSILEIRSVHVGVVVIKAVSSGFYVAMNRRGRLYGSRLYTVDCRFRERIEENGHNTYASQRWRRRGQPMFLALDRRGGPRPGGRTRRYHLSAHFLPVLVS
# Bfl-1 A1 inh = inhibitors of the anti-apoptotic protein A1, read as caspase activation. hit rate 0.066% among 330,000. MEF A1-2A-BIM cells, Caspase-Glo 3/7 luminescence, 3 h; percent of clofoctol response, vehicle zero. caspase activation, % (no concentration beside the values);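 active means over half of replicate activation scores above 10%, or exactly half above 10 with the replicate mean above 10; inconclusive means replicate mean below 10 yet half the replicates above 10; inactive means over half of replicates below 10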;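 further: wells of about 30 µL received 50 nL stock; many hits fall short of the cut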
# T cruzi inh = T. cruzi replication inhibition; inhibition, % (concentration not given with the values); AID 1885; T. cruzi beta-gal in NIH3T3, luminescence, 90 h; hit rate 1.4% among 300,000;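 active means mean inhibition across valid replicates above about 55%, limit read from the data; inconclusive means mean below that limit but half or more replicates reach it; inactive means mean below it, under half of replicates reach it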;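 further: signal also drops with host cell toxicity which is not excluded here; 0% = plate median of DMSO wells and 100% = zero luminescence signal; higher percent means less beta-gal luminescence so fewer parasites; stock transfer was 50 nL into about 50 µL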
# Beta cell apopt = beta cell apoptosis inhibition. protection from apoptosis, % (no concentration beside the values). hit rate 0.8% among 300,000. INS-1E cytokine-induced death, ATP luminescence, 48 h; percent of positive-control rescue, neutral wells zero;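 active means all replicates at 75% or more, or half of them and the mean; inconclusive means half reach 75% but not the mean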;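 further: 0% = cytokine-treated negative control wells and 100% = positive control rescue; higher means more ATP so stronger rescue from cytokine killing; wells of about 40 µL received 100 nL stock; the first replicate is given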
# UCH37 inh = blocks the human deubiquitinase UCH37. purified proteasome/UCH37, Ub-AMC cleavage fluorescence. Q9Y5K5. AID 588478. hit rate 0.33% among 330,000. inhibition, % (concentration not given with the values);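 active means mean of two replicates above 20%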;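 further: 0% = compound-free wells with enzyme and 100% = wells lacking proteasome; stock transfer was 100 nL into about 20 µL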
# Target sequence (Q9Y5K5 whole entry, looked up): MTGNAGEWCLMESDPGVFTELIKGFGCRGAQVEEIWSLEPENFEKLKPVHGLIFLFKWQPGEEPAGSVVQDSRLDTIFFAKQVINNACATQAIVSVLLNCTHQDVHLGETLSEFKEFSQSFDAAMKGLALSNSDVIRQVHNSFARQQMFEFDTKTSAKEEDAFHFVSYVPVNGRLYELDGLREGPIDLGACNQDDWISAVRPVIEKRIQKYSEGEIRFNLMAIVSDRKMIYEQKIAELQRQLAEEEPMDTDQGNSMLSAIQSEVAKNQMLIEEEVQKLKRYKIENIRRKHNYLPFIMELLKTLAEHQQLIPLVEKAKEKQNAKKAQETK
#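 Material: Human UCH37 enzyme supplied as purified proteasome complex | Schedule: 30 min preincubation with enzyme, 25 min cleavage at room temperature | Detection: AMC fluorescence 355/460 nm | Measure: % inhibition of Ub-AMC cleavage fluorescence | Controls: Wells without proteasome as full block, compound-free enzyme plus substrate as uninhibited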
# rRNA inh HTS = inhibitors of bacterial rRNA selective over humanized ribosomes. hit rate 1.6% among 350,000. E. coli WT GFP vs humanized-ribosome RFP mutants, fluorescence, 24 h; active compounds read low; DMSO median 0, no signal -100. AID 720706. GFP signal change (wild-type ribosome), % (test concentration not listed);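 active means significant combined selectivity score with lowered wild-type GFP, culture density cut under 30%, mutant RFP and density less affected; inactive means any of these conditions unmet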; further: one replicate is shown; some compounds called inactive have numbers as strong as hits
# Ecoli growth = E. coli growth inhibition; Escherichia coli growth, OD600, 23 h; active compounds read low; OD600 absorbance (test concentration not listed); hit rate 0.21% among 330,000; AID 1053175;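 active means OD600 absorbance below the run mean of sample wells minus 3.6 SD, in any replicate, cut at about 0.56 in these data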;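 further: stock transfer was 300 nL into about 60 µL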
# AF4-AF9 inh = inhibitors of human MLL-AF4/AF9 interaction; inhibition, % at 10 µM; AlphaScreen, biotin-AF4 peptide binding to FLAG-AF9; P42568; hit rate 0.47% among 350,000;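 active means every replicate reaching a set inhibition limit, whatever the replicate mean, cut at about 25% in these data; inconclusive means mean inhibition reaches that limit but some replicates miss it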;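 further: 0% = plate neutral control median and 100% = total signal loss; the record names both 10 and 1 µM as test concentration; the first replicate is given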
# Target sequence (P42568 whole entry, looked up): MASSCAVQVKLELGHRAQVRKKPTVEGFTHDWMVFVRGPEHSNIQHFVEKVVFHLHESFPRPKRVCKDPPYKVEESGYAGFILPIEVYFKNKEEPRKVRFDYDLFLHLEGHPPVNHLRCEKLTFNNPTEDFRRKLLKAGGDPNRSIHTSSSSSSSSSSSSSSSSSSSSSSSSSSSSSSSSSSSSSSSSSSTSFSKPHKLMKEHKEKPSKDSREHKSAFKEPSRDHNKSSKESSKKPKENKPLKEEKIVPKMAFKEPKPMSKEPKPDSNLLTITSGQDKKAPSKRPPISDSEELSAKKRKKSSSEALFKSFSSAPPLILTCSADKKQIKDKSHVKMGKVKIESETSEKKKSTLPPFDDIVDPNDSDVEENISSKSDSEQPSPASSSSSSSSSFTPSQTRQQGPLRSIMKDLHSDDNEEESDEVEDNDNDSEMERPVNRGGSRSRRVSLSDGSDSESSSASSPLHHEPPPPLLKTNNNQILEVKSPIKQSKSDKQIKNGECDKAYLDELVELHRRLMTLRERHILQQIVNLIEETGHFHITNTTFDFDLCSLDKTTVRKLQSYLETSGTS
# rRNA inh HTS OD600 = second read-out of rRNA inh HTS, no call of its own (marks repeat the call); OD600 change, %; measured here: OD600 growth;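 optical density of the mix in the first replicate; 0 = DMSO median and -100 = no signal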
# rRNA inh HTS RFP = recorded beside rRNA inh HTS, whose call it bears; RFP signal change, %; measured here: RFP humanized mutant strains;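 first replicate; 0 = DMSO median and -100 = no signal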
# * = called active by the depositor; i = inactive; ? = inconclusive; nt = no result given; & = joins results of further samples.
SMILES,FGF22 binding,Bfl-1 A1 inh,T cruzi inh,Beta cell apopt,UCH37 inh,rRNA inh HTS,rRNA inh HTS OD600,rRNA inh HTS RFP,Ecoli growth,AF4-AF9 inh
CCOC(=O)N1CCN(c2c(NCCN(C)Cc3ccccc3)c(=O)c2=O)CC1,i,0.1,nt,-4,6.7,2,0,-0.7,0.72,-6.7
COc1cccc(/C=N/NC(N)=S)c1OCc1cccc(Cl)c1,i,0.7,?,17,nt,-40,-49,-8.8,nt,14
CCn1cc(C(=O)OCC(=O)Nc2cccc(Cl)c2Cl)c(=O)c2ccc(C)nc21,i,-0.5,-4,-1,2.1,-16,-7,6.0,0.68,-0.9
Cc1cc(N2CCC(C)CC2)nc2ccc(N3C(=O)CCC3=O)cc12,nt,0.2,-4,-2,-162,nt,nt,nt,0.65,nt
CCNC(=S)N/N=C/c1ccccc1[N+](=O)[O-],i,0.2,-2,-1,nt,1,-4,-0.7,nt,0.7
CC(=O)Nc1cccc(C(=O)NC2CCCc3c2cnn3-c2ccccc2F)c1 (centres undefined),i,-0.2,-7,1,1.5,0,1,-1.2,0.7,-9.3
O=C(NCc1ccco1)c1nnc(Cc2ccc(Cl)cc2)o1,i,1.0,-3,0,7.4,-14,3,-0.4,0.71,6.9
COc1ccc(N2CCN(C(=O)CS(=O)Cc3nc(-c4ccc(OC)c(OC)c4)oc3C)CC2)cc1 (centres undefined),i,-1.3,-5,1,2.6,3,6,5.5,0.65,0.2
CCOc1ccc(NC(=O)c2ccc(NC(=S)NC3CCCCC3)cc2)cc1,i,-1.2,6,25,4.8,10,18,9.2,0.7,1.8
O=C(O)c1cccc(-c2ccccc2)c1O,i,nt,nt,nt,-86,7,-7,-6.7,0.69,-1.2
COc1ccccc1OCC(=O)Nc1ccccc1C(=O)NC1CC1,i,-0.9,-5,1,2.0,13,16,4.2,0.62,-3.7
O=C(NCCc1ccccn1)C(F)(F)C(F)(F)C(F)(F)C(F)(F)C(F)(F)C(F)(F)C(F)(F)C(F)F,nt,0.3,-3,7,1.3,nt,nt,nt,0.67,nt
Cc1cc(NS(=O)(=O)c2ccc(Br)s2)no1,nt,-0.6,-6,nt,0.2,nt,nt,nt,0.7,nt
CCOc1ccc(C2NCCc3cc(OC)c(OC)cc32)cc1OC (centres undefined),i,0.2,29,10,0.7,10,16,0.3,0.68,2.4
O=C(NCCCc1ccccc1)N1CCOCC1,i,0.5,-3,2,3.0,2,20,-8.2,0.68,-1.4
CN(C(=O)c1ccccc1C(=O)OCC(=O)c1ccc(F)c(F)c1)C1CCCCC1,i,nt,nt,nt,2.6,-6,-11,4.9,0.66,1.2
Cc1cnc(C)c(N2CCN(Cc3nc(-c4ccccc4)no3)CC2)n1,i,0.2,-12,-1,2.7,-5,-1,-11,0.64,-3.6
Cc1c(C(=O)N2CCN(c3ccccc3)CC2)oc2c(F)cccc12,i,1.0,29,2,2.1,-20,-23,-3.8,0.72,0.3
COc1cc(CNCCSc2nnnn2C)cc(Br)c1OCc1ccccc1F,nt,-0.3,37,0,0.6,nt,nt,nt,0.68,nt
O=C(OCCN1CCCCC1)c1cc2ccccc2o1,nt,0.0,-6,-2,2.6,nt,nt,nt,0.62,nt
COc1ccccc1N(CC(N)=O)S(=O)(=O)c1ccc(C)cc1,nt,0.9,-23,-11,-0.2,nt,nt,nt,0.7,nt
CCn1c(O)c(/C=C2\C=NN=C2c2ccccc2)sc1=S,i,0.6,-16,-6,2.5,9,5,-0.2,0.7,nt
COc1cccc(C(=O)N2CCN(C3CCC(c4ccccc4)CC3)CC2)c1OC (centres undefined),nt,0.4,nt,-9,5.6,nt,nt,nt,0.71,nt
Cc1cccc(-n2ccnc2CN2CCC(CO)(Cc3ccccc3)CC2)c1,i,-0.3,-2,-6,2.2,3,5,1.0,0.67,-1.4
Cc1noc(C)c1C(=O)NCc1ccccc1,nt,0.1,-9,1,-0.9,nt,nt,nt,0.72,nt

# Continued:
SMILES,FGF22 binding,Bfl-1 A1 inh,T cruzi inh,Beta cell apopt,UCH37 inh,rRNA inh HTS,rRNA inh HTS OD600,rRNA inh HTS RFP,Ecoli growth,AF4-AF9 inh
Cn1c(SCC(=O)N/N=C/c2ccc([N+](=O)[O-])s2)nnc1-c1ccccc1,i,-1.7,58*,?,nt,10,16,3.5,nt,-2.3
CCn1c2ccccc2c2n[nH]c(=S)nc21,i,0.7,-5,-12,6.5,2,3,-4.9,0.65,1.0
Cc1ccc2c(c1)c1c3n2CCNC3CCC1 (centres undefined),i,1.6,3,nt,4.1&-0.7,5,-1,2.4,0.67&0.64,13&6.6
O=C(c1ccccc1Cl)N1CCN(Cc2ccc3c(c2)OCO3)CC1,i,-0.4,4,-4,1.3,4,1,3.5,0.66,3.7
Cc1cccc(NC(=S)NC2CC3CCCC(C2)N3Cc2ccccc2)c1C (centres undefined),i,0.0,-1,-2,2.7,7,-4,1.7,0.65,11
O=C(NNC(=O)c1ccccc1F)c1ccco1,i,0.0,11,nt,1.3,9,4,-0.8,0.67,-0.5
O=C(CN1N=C(c2ccc(Cl)cc2)CCC1=O)NCCN1CCc2ccccc2C1,i,-0.7,-2,-1,2.3,-3,-4,2.2,0.67,3.8
CCn1c(O)c(N=NC2=NC(=O)CS2)c2cc(C)ccc21,nt,-1.0,-3,-3,3.6,nt,nt,nt,0.67,nt
CC(C)CC(=O)Nc1nc(-c2ccc(S(=O)(=O)N3CCOCC3)cc2)cs1,i,nt,9,nt,1.3,-1,-1,-0.7,0.72,-0.4
CC(=O)Nc1cccc(/C(C)=N/NC(=O)c2ccccc2Cl)c1,i,0.6,3,-4,nt,9,8,-3.2,nt,5.1
CS(=O)(=O)N1Cc2ccccc2CC1C(=O)O (centres undefined),i,1.4,nt,4,0.0,16,5,-0.2,0.74,-7.9
Cn1c(=O)c2c(nc(CN3CCN(c4ccccc4)CC3)n2Cc2c(F)cccc2Cl)n(C)c1=O,nt,0.0,?,5,8.1,nt,nt,nt,0.7,nt
CCOC(=O)c1ccc(S(=O)(=O)N2CCN(CC3CC=CCC3)CC2)cc1 (centres undefined),nt,0.0,12,0,1.8,18,2,4.7,0.71,nt
CC(C)(C)n1ncc2c(=O)n(CC(=O)c3ccc(Cl)cc3)cnc21,nt,0.5,3,2,4.3,nt,nt,nt,0.65,nt
CCOc1ccc2oc(C(=O)OCC(=O)NC3CCCCC3)c(C)c2c1,i,1.9,nt,-5,-18,13,12,-0.7,0.66,0.5
CCOC(=O)c1cc(NC(=O)Nc2ccc(OC)c(OC)c2)c(C)nc1C,nt,-0.3,-1,-8,9.4,nt,nt,nt,0.72,nt
COC(=O)c1ccccc1NC(=O)CCC(=O)N1CCSc2ccccc21,i,0.2,0,-7,3.9,-16,-28,-3.1,0.74,0.3
O=C(CSc1ncc(-c2ccccc2)[nH]1)Nc1cccc(O)c1,i,1.4,-16,-1,4.2,-26,-5,14,0.65,13
Cn1c(CCCCCN)nc2ccccc21,nt,-0.7,36,-1,0.0,nt,nt,nt,0.7,nt
CC(=O)c1cccc(CN2CCC(n3nccc3NC(=O)c3ccc4c(c3)OCO4)CC2)c1,i,-0.1,9,-3,-0.3,16,12,1.4,0.72,-1.1
Cc1nc2c(sc(=S)n2Cc2ccco2)c(=O)n1CC(=O)Nc1ccccc1F,i,?,-12,11,4.1,11,7,5.3,0.72,-3.2
COc1cc(Nc2ccccc2Cl)c([N+](=O)[O-])nc1[N+](=O)[O-],nt,-0.1,?,nt,7.4,nt,nt,nt,0.66,nt
Cc1ccc(C(=O)CSc2nc(C)cc(C)c2C(N)=O)cc1,i,-0.1,nt,-1,2.2,-8,-3,6.8,0.66,-23
Cc1ccc2[nH]cc(C(=O)CN3CCN(C)CC3)c2c1,nt,0.0,40,-5,1.8,nt,nt,nt,0.76,nt
COc1ccc(Nc2nc(N)nc(CSc3nncn3C)n2)cc1,nt,-0.4,-15,-5,0.1,nt,nt,nt,0.71,nt

# Next section.
SMILES,FGF22 binding,Bfl-1 A1 inh,T cruzi inh,Beta cell apopt,UCH37 inh,rRNA inh HTS,rRNA inh HTS OD600,rRNA inh HTS RFP,Ecoli growth,AF4-AF9 inh
CCOC(=O)C1CCN(C(=O)CCC2CCCC2)CC1,i,0.7,-4,1,0.3,6,5,0.6,0.7,-6.6
O=C(CCn1nc(-c2ccc(Cl)cc2)ccc1=O)N1CCOCC1,nt,?,-10,-1,2.6,6,12,1.7,0.71,nt
CCN(CC)c1nc(Nc2ccc([N+](=O)[O-])cc2)nc(N(CC)CC)n1,i,-0.3,45,15,7.4,3,8,-4.0,0.77,-9.2
O=C(COc1ccc(Cl)cc1)Nc1nnc(S(=O)(=O)N2CCCCCC2)s1,i,1.0,6,5,3.7,-13,-9,7.2,0.72,3.0
COC(=O)c1ccccc1C(=O)N1CC(O)CO1 (centres undefined),i,-0.3,-17,nt,2.4,8,7,4.3,0.68,-0.7
CC1CC(C)CN(C(=O)C(C)N(C)CC(=O)Nc2ccccc2Cl)C1 (centres undefined),i,-0.7,nt,0,1.1,-16,-32,2.0,0.68,0.8
C/C=C\C(=O)Nc1cccc(C2=NOC3(C2)C[C@@H](C(N)=O)N(C(=O)CC(c2ccccc2)c2ccccc2)C3)c1 (some centres undefined),nt,1.8,13,0,4.3,nt,nt,nt,nt,nt
Cn1c2ccccc2c2c(C(=O)NCCCN3CCCC3=O)cn(C3CCCCC3)c(=O)c21,nt,0.7,1,-4,-81,nt,nt,nt,0.75,nt
O=C(N/C(=C\c1cccs1)C(=O)N1CCOCC1)c1ccco1,i,0.6,-13,-7,2.7,17,15,2.7,0.7,-3.5
CC(C)(C)n1nc2c(c1NC(=O)COc1ccc(Cl)cc1)CSC2,nt,0.4,-8,-17,3.1,nt,nt,nt,0.76,nt
Cc1cc2occ(CC(=O)NCc3cccs3)c2cc1C(C)C,i,0.3,36,-7,nt,nt,nt,nt,nt,3.4
CSc1sc2ccccc2[n+]1CCCS(=O)(=O)[O-],i,0.4,-3,-7,3.5,27,13,3.3,0.68,3.7
O=C(O)c1cc(S(=O)(=O)NCC2COc3ccccc3O2)ccc1Cl (centres undefined),i,-0.5,nt,-4,1.6,3,8,-2.7,0.68,-1.7
Cn1ccnc1SCC(=O)c1ccc(C#N)cc1,i,-0.2,-15,-6,3.1,2,11,3.3,0.7,1.7

# Full records, quoted from the list. Order of screens: FGF22 binding, Bfl-1 A1 inh, T cruzi inh, Beta cell apopt, UCH37 inh, rRNA inh HTS, rRNA inh HTS OD600, rRNA inh HTS RFP, Ecoli growth, AF4-AF9 inh
# `COC(=O)c1ccccc1C(=O)N1CC(O)CO1` (centres undefined) in the list: i, -0.3, -17, nt, 2.4, 8, 7, 4.3, 0.68, -0.7
# `CC(C)(C)n1nc2c(c1NC(=O)COc1ccc(Cl)cc1)CSC2` in the list: nt, 0.4, -8, -17, 3.1, nt, nt, nt, 0.76, nt
# `C/C=C\C(=O)Nc1cccc(C2=NOC3(C2)C[C@@H](C(N)=O)N(C(=O)CC(c2ccccc2)c2ccccc2)C3)c1` (some centres undefined) in the list: nt, 1.8, 13, 0, 4.3, nt, nt, nt, nt, nt

# Only part of the results is shown; count on the stated rates, not on these rows.
